Source: PubChem
VDR inhibitor = Inhibitors of the vitamin D receptor (VDR): qHTS. Vitamin D3 receptor (Homo sapiens), P11473. VDR-SRC2-3 peptide fluorescence polarization, 2 h. Potency, µM, for inactives: max response, negative = inhibition, usual class: inhibitors. actives 0.93% (n = 400,000). AID 504847, 2011; active = well fitted inhibition curve with a large enough effect; inconclusive = small, poorly fitted or top-dose-only effect, or another doubt; inactive = no such curve, though single readings can be large or run the other way; note: series mostly up to about 120 µM
Target sequence (P11473 whole entry, looked up): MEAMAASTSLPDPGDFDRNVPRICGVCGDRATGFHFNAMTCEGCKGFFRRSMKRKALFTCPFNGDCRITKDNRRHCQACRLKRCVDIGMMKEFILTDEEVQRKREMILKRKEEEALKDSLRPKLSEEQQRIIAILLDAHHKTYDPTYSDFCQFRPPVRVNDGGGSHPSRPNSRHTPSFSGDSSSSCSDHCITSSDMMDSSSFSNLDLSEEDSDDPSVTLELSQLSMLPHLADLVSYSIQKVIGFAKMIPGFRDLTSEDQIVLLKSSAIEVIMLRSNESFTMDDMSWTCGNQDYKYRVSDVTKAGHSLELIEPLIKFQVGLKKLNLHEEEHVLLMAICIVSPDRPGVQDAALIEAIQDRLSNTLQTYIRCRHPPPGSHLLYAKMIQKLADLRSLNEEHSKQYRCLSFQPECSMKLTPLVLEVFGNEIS
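After 23 nl compound addition and a short centrifugation, plates sat for 2 hours at ambient temperature; polarization of fluorescence then indicated loss of VDR binding to peptide SRC2-3.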
Active calls of the source: *; ? = inconclusive; & = joins results of further samples. % is set by controls: 0 for no effect and ±100 for the full control effect; potency is the fitted concentration of half-maximal effect. An excerpt, so the mix of outcomes need not match the whole.

SMILES	VDR inhibitor
Cc1ccnc(NC(c2ccccc2)c2ccc3cccnc3c2O)c1 (stereo unspecified)	?
Cc1oc(-c2ccccc2Cl)nc1CN1CCCN(C(=O)c2ccco2)CC1	7.9%
Cn1c(=O)c2c(nc3n2CC(O)CN3c2ccccc2)n(C)c1=O (stereo unspecified)	-10.2%
COc1ccc(-c2nn(-c3ccccc3)cc2C(=O)Nc2ccc(C(=O)O)cc2)cc1OC	-22.2%
CN(C)CCCN(C(=O)c1ccco1)c1nc2ccc(Cl)cc2s1	-1.0%
COc1cc(NC(=O)C/C(C)=N/NC(=O)c2cccc(O)c2)c(OC)cc1Cl	-16.3%
O=C(CN1C(=O)NC2(CCCC2)C1=O)OCc1ccc(Br)cc1	9.1%
CCOC(=O)c1c(CN2CCN(CC#N)CC2)n(C)c2cc(Br)c(OC)cc12	5.0%
NC(=O)CSc1nc2cc3c(cc2c(=O)n1CCCCCC(=O)NCc1ccc2c(c1)OCO2)OCO3	7.7%
COc1cccc(-c2nn(C)c3sc(C(=O)N4CCN(c5ccccc5)CC4)cc23)c1	-20.1%
CNC(=O)Cc1nc2ccccc2n1CC(=O)Nc1cc(C)cc(C)c1	-10.8%
CN(C)CCCO[C@H]1[C@@H]2OC(C)(C)O[C@@H]2O[C@@H]1[C@H](O)CO	-11.1%
CC(C)(O)c1cc2ccc(C#Cc3ccsc3)cc2c(=O)o1	-19.7%
CCOC(=O)c1c(C)[nH]c(C)c1S(=O)(=O)NCc1ccc(OCC)cc1	-9.8%
Cc1ccc(SCc2[nH]nc3c2C2(CCSCC2)C(C#N)=C(N)O3)cc1	2.1%
O=C(c1ccccc1)N1CCCC(C(=O)N2CCCCCC2)C1 (stereo unspecified)	-16.1%
O=C(CCC(=O)N1CCSc2ccccc21)NCc1ccc(Cl)cc1	-4.8%
COc1ccc(/C=C/C(=O)Nc2c(C(=O)O)[nH]c3ccccc23)cc1OC	?
CCCCC(CCC(=O)O)(C(=O)OCC)c1csc(Nc2ccccc2)n1 (stereo unspecified)	-16.3%
CO[C@H]1C[C@@H]2CC[C@@H](C)[C@@](O)(O2)C(=O)C(=O)N2CCCC[C@H]2C(=O)O[C@H]([C@H](C)C[C@@H]2CC[C@@H](O)[C@H](OC)C2)CC(=O)[C@H](C)/C=C(/C)[C@@H](O)[C@@H](OC)C(=O)[C@H](C)C[C@H](C)C=C/C=C\C=C/1C	-23.6%
Cc1noc(C)c1S(=O)(=O)N1CCCCC1	-9.0%
COc1ccc(C(CNC(=O)c2ccc(S(=O)(=O)Nc3ccccc3OC)cc2)N2CCCC2)cc1 (stereo unspecified)	-11.6%
O=C(CNS(=O)(=O)c1c(Cl)cccc1Cl)N1CCCCCC1	-3.7%
O=C1NC[C@H](Cc2ccccc2)N(C[C@H]2CCCN2C[C@H](Cc2ccccc2)N2C[C@H](Cc3ccccc3)N(CC3CCCCCC3)C(=O)C2=O)C1=O	1.2%
COc1ccc(-n2nc(C(=O)O)c(=O)n(C)c2=O)cc1	-12.8%
SMILES	VDR inhibitor
CCCN1C(=O)C(O)(C/C(C)=N/O)c2ccccc21 (stereo unspecified)	-0.4%
Cc1nc(-c2cccnc2)sc1C(=O)Nc1ccc(Cl)cc1	9.2%
Cc1ccc(NC(=O)C(C)OC(=O)Cc2c[nH]c3ccccc23)cc1 (stereo unspecified)	4.1%
C=C1C[C@H]2[C@@H]3CCc4cc(OC)ccc4[C@H]3CC[C@]12C	-7.2%
Cc1ccc(S(=O)(=O)c2c(C)nn(C(C)(C)C)c2OC(=O)c2ccc(Br)o2)cc1	-19.1%
O=C(CSC1=Nc2ccccc2N=C(c2ccc(F)cc2)C1)NCc1ccccc1Cl	10.6%
CCCNC(=O)NC(=O)CSc1cccc(C(F)(F)F)c1	9.7%
CN(CC(=O)NCCc1ccc(S(N)(=O)=O)cc1)S(=O)(=O)c1cccc2nsnc12	9.1%
COc1ccc(OC)c(S(=O)(=O)Nc2ccc(O)c(Sc3ncn[nH]3)c2)c1	2.7%
Cc1ccc(NC(=O)Nc2cccs2)cc1	-1.2%
Cc1cc(C)n(-c2ccc(NC(=O)C3CCN(Cc4cnc(C)s4)CC3)cc2)n1	-16.2%
Cc1ccc(S(=O)(=O)N2CCN(c3nc(-c4cncs4)nc4ccccc34)CC2)cc1	-5.6%
CCOC(=O)c1cnc(SCC(=O)NCc2cccs2)nc1N	1.6%
CCC(C(=O)NCc1ccco1)N(Cc1cccs1)C(=O)CNS(=O)(=O)c1ccccc1 (stereo unspecified)	6.8%
CC(=O)N1CCc2c(sc(NC(=O)CSc3ccccc3)c2-c2nc3ccccc3s2)C1	6.4%
CCOC(=O)C(=CNNc1cccc(Cl)c1)C(=O)OCC	?
CN(C(=O)c1ccc(NC(=O)Cc2ccc(NC(=O)C3CCCN(C(=O)C4CCCCC4)C3)cc2)cc1)C1CC1 (stereo unspecified)	-15.1%
COCCN(CC(=O)NCC1CCCO1)C(=O)CCC(=O)Nc1cc(C)on1 (stereo unspecified)	-3.0%
O=C(CN1CCN(C(=O)C2COc3ccccc3O2)CC1)Nc1ccccc1 (stereo unspecified)	14.7%
Nc1nc2[nH]c(=O)[nH]c2c(=O)[nH]1	8.2%
CCc1ccccc1NC(=O)c1ccc2c(c1)nnn2C1CCCC1	4.8%
COCc1c(C(=O)N2CCc3ccccc32)oc2ccccc12	-5.0%
COC(=O)C1=C(C(=O)OC)C(c2cc([N+](=O)[O-])ccc2O)c2sc(=O)[nH]c2S1 (stereo unspecified)	-29.1%
N#CCCn1c(=O)c(-c2cccs2)nc2cnc(Nc3ccccc3)nc21	1.9%
NS(=O)(=O)c1ccc(CCNS(=O)(=O)c2cccs2)cc1	-6.1%

Given with bars between the fields: entries from further up
SMILES | VDR inhibitor
COc1ccc(OC)c(S(=O)(=O)Nc2ccc(O)c(Sc3ncn[nH]3)c2)c1 | 2.7%
Cc1ccc(NC(=O)Nc2cccs2)cc1 | -1.2%
Cc1cc(C)n(-c2ccc(NC(=O)C3CCN(Cc4cnc(C)s4)CC3)cc2)n1 | -16.2%
Cc1ccc(S(=O)(=O)N2CCN(c3nc(-c4cncs4)nc4ccccc34)CC2)cc1 | -5.6%

Additional structures follow.
SMILES	VDR inhibitor
COc1cccc(Cn2c(=O)c(-c3ccccc3)nc3cnc(N(C)C)nc32)c1	9.5%
O=C(NCc1cc([N+](=O)[O-])ccc1O)c1cccnc1Sc1ccccc1Cl	21.7%
COC(=O)c1cc(C)nc(N)c1C#N	-3.8%
CN(c1ccccc1)c1nc(N)c([N+](=O)[O-])c(Nc2cccc(F)c2)n1	13.6%
COc1cccc(N=c2oc3c(C)ncc(CO)c3cc2C(N)=O)c1	-4.3%
Cc1ccc(N2C(=O)C3C(C2=O)C(C(=O)c2ccc(Cl)cc2)N2CCCC32)cc1 (stereo unspecified)	-2.7%
Cc1cc(OCC(=O)OCC(=O)Nc2cc(S(=O)(=O)N3CCOCC3)ccc2Cl)ccc1Cl	13.2%
COC(=O)NNC(=O)C(c1ccccc1)c1ccccc1	1.3%
COc1ccc(-c2noc(-c3cccc(OC)c3OC)n2)cc1OC	-14.7%
COC(CNS(=O)(=O)c1ccc(S(=O)(=O)N2CCCC2)cc1)OC	13.4%
CC(C)CN1CCC(=O)N([C@H](CSc2ccccc2)Cc2ccccc2)CC1	?
Cc1noc(C)c1C(=O)N1CCC2(CCN(Cc3cc(C(F)(F)F)cc(C(F)(F)F)c3)CC2)CC1	-10.1%
CC(C)n1cnc(S(=O)(=O)N2CCCC(C(=O)NCc3ccccc3Cl)C2)c1 (stereo unspecified)	-1.4%
CC(C)C(NS(=O)(=O)c1ccccc1)C(=O)OCc1cc([N+](=O)[O-])cc2c1OCOC2 (stereo unspecified)	-13.6%
Cc1ccc(-n2nc3c(c2NC(=O)c2c(F)cccc2Cl)CS(=O)(=O)C3)cc1C	-2.8%
COC(=O)C1CC(O)CN1S(=O)(=O)c1cccs1 (stereo unspecified)	6.6%
NC(=O)CSc1nc2ccccc2c(=O)n1Cc1ccccc1	0.3%
O=C(CCCC(=O)Nc1cccnc1)Nc1cccnc1	5.7%
Cc1ccc(C(=O)Nc2ccccc2C(=O)N2CCCCCC2)cc1	-0.8%
Cc1cccc(Nc2c(-c3ccsc3)nc3nc(C)cc(C)n23)c1	3.8%
O=C(Nc1cccc([N+](=O)[O-])c1)N1CCCCCC1	-11.5%
Cc1ccc(NC(=O)CCCn2c3ccccc3c(=O)c3cc(C)ccc32)c(Br)c1	15.5%
COc1ccc(C2c3ccc4ccccc4c3Oc3ncn(CCCO)c(=N)c32)cc1 (stereo unspecified)	23.1%
O=c1ccc2cc(S(=O)(=O)NCc3ccccc3)ccc2[nH]1	-13.5%
CCC(C)(C)NC(=O)C(c1cccc(OC)c1)N(C(=O)c1ccn[nH]1)c1cccc(OC)c1 (stereo unspecified)	-12.9%

A draw from above in order of heavy-atom count, rising:
SMILES	VDR inhibitor
O=c1ccc2cc(S(=O)(=O)NCc3ccccc3)ccc2[nH]1	-13.5%
COC(CNS(=O)(=O)c1ccc(S(=O)(=O)N2CCCC2)cc1)OC	13.4%
COc1ccc(-c2noc(-c3cccc(OC)c3OC)n2)cc1OC	-14.7%
CC(C)n1cnc(S(=O)(=O)N2CCCC(C(=O)NCc3ccccc3Cl)C2)c1 (stereo unspecified)	-1.4%
Cc1ccc(-n2nc3c(c2NC(=O)c2c(F)cccc2Cl)CS(=O)(=O)C3)cc1C	-2.8%
COc1ccc(C2c3ccc4ccccc4c3Oc3ncn(CCCO)c(=N)c32)cc1 (stereo unspecified)	23.1%
CCC(C)(C)NC(=O)C(c1cccc(OC)c1)N(C(=O)c1ccn[nH]1)c1cccc(OC)c1 (stereo unspecified)	-12.9%

Following part.
SMILES	VDR inhibitor
CC(=O)NC(CCS(C)(=O)=O)C(=O)Nc1ccc2c(c1)OCO2 (stereo unspecified)	-8.5%
CCn1c(=NC(=O)C2COc3ccccc3O2)sc2c(C)ccc(OC)c21 (stereo unspecified)	19.7%
CCOc1ccccc1N(CC(=O)NCc1ccccc1)C(=O)CCC(=O)Nc1cc(C)ccn1	7.5%
CC(C)n1c2ccccc2c2cc([N+](=O)[O-])ccc21	-12.0%
CCCCN(CCCC)CCCNC(=O)CC1Oc2ccc(C)cc2NC1=O (stereo unspecified)	5.5%
COc1ccc(-c2ccc(CO)o2)cc1N	-9.0%
Cc1nn(-c2ccccc2)c(NC(=O)NS(=O)(=O)c2ccc(Cl)cc2)c1C#N	5.0%
O=[N+]([O-])c1ccccc1N/N=C\c1ccccc1F	-3.1%
Cc1ccc(/C=N/NC(=S)NCCc2ccccc2)s1	-6.3%
COC(=O)c1cc(C(=O)OCC(=O)N(C)C2CCS(=O)(=O)C2)cc([N+](=O)[O-])c1 (stereo unspecified)	12.6%
COc1cccc(-n2nnnc2SCC(=O)Nc2ccc(NC(C)=O)cc2)c1	-18.3%
CS(=O)(=O)N(CC(=O)Nc1cc(Cl)ccc1Cl)c1ccccc1	9.7%
COc1ccccc1NC(=O)N1CCN(c2ccnc3cc(Cl)ccc23)CC1	-2.1%
COc1ccc(C(=O)Nc2nc3n(n2)C(c2ccc(Cl)cc2)C=C(c2ccccc2)N3)cc1OC (stereo unspecified)	-18.0%
CC1(C)CC2CC(C)(CN2C(=O)COC(=O)c2ccccc2C(F)(F)F)C1 (stereo unspecified)	6.3%
CC(=O)NC(Cc1ccccc1F)C(=O)NC1CCN(C(=O)Nc2ccc(C)cc2)CC1 (stereo unspecified)	7.1%
Cc1cccc(N2CCN(C(=O)CCSCc3ccccc3F)CC2)c1C	15.8%
NC(=O)CC(NC(=O)c1ccccc1)c1ccc(N2CCCCCCC2)c([N+](=O)[O-])c1 (stereo unspecified)	-8.1%
Cc1cccc(Cn2c(-c3cccc(Br)c3)nc3ccccc32)c1	-3.2%
Cc1sc2nc(CSCC(=O)Nc3ccc(OC(F)F)cc3)[nH]c(=O)c2c1C	4.0%
CC(=O)c1cccc(Nc2c3c(nc4nc(-c5cccs5)nn24)CCCC3)c1	6.1%
CN(Cc1ccccc1)C(=O)c1cccc(C(=O)N(C)Cc2ccccc2)c1	9.3%
CNc1ncnc2c1ncn2[C@H]1C[C@H](OP(=O)(O)O)[C@H](COP(=O)(O)O)O1	2.0%
O=C(c1c[nH]c2ccccc12)C(F)(F)F	2.2%
O=[N+]([O-])c1cccnc1Oc1ccc(F)cc1F	5.3%
SMILES	VDR inhibitor
CCCCCN1N=C(C)CC1=O	-29.9%
O=C(Nc1ccnn1C1CCN(C(=O)c2cccc(Cl)c2)CC1)C1CCOC1 (stereo unspecified)	12.8%
Cc1ccccc1C(=O)N/N=C/c1ccc(Sc2ccccn2)o1	-9.5%
Cc1cc(C)nc(SCc2nnc(SCC(=O)Nc3nc(-c4ccccc4)cs3)n2-c2ccccc2)n1	-4.1%
COc1ccc(OC)c(NC(=O)CN2C(=O)NC3(CCOc4ccccc43)C2=O)c1 (stereo unspecified)	-4.6%
O=C(CN1CCN(Cc2ccccc2Cl)C1=O)NCc1ccccn1	7.0%
Cc1cc(C(=O)CSc2ncnc3ccccc23)c(C)n1C1CC1	-12.8%
CCCCCCCCCCCCCCCC(=O)OCC(COP(=O)(O)O)OC(=O)CCCCCCCCCCCCCCC (stereo unspecified)	7.1%&-16.7%
CCOC(=O)C1=C(c2ccccc2)NC(=O)NC1c1cc(OCC)c(O)c([N+](=O)[O-])c1 (stereo unspecified)	6.3%
S=c1[nH]ccn1CCc1ccccc1	-7.6%
O=C(O)c1cccc(CSc2n[nH]c(-c3ccc(Cl)cc3Cl)n2)c1	-21.2%
COc1ccc(Nc2nc(N)nc(CN3CCN(c4ccc(F)cc4)CC3)n2)cc1	-8.9%
Cn1cc([N+](=O)[O-])c(C(=O)n2cccn2)n1	-17.8%
NC(=O)C[C@H](NC(=O)c1ccc(Cl)cc1)C(=O)OCc1ccccc1	-4.5%
CCOc1ccc(NC(=O)COC(=O)c2n[nH]c3ccccc23)cc1	-10.5%

In another format: 2 of the compounds above
O=[N+]([O-])c1ccccc1N/N=C\c1ccccc1F
  VDR inhibitor: -3.1%
CC(C)C(NS(=O)(=O)c1ccccc1)C(=O)OCc1cc([N+](=O)[O-])cc2c1OCOC2 (stereo unspecified)
  VDR inhibitor: -13.6%
